High-throughput results deposited in PubChem BioAssay by ICCB-Longwood Screening Facility, Harvard Medical School.
GIV Gai3 FP – blocks GIV peptide binding to rat Galpha-i3; Galpha-i3/FITC-GIV peptide fluorescence polarization, 90 min; stronger effect = lower value; scaled: aluminum fluoride 0%, vehicle 100%; percent of control (FP), % (no concentration beside the values); 210,000 tested, 0.42% active;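 active means replicate mean at 85% of control or lower, very high polarization wells dropped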;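 further: wells of about 15 µL received 100 nL stock; the first replicate is given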
Target sequence (P08753 whole entry, looked up): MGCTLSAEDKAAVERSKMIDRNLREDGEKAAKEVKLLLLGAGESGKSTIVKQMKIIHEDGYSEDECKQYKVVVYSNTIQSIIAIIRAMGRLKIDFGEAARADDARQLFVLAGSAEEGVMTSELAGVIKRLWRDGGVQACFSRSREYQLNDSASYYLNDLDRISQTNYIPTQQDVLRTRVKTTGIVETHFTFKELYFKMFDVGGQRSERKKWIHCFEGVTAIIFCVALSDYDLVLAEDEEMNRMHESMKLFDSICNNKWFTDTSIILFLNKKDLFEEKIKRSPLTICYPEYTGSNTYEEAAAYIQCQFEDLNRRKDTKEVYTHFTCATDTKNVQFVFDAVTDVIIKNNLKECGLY
Sa growth 42C – blocks Staphylococcus aureus growth; S. aureus RN4220 growth, OD600, 20 h, 42 °C; stronger effect = lower value; relative growth, % (concentration not given with the values); 170,000 tested, 0.53% active; AID 720641;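 active means growth at 42 °C up to 50% and 20 or more points under that at 30 °C, or under 10% at both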;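 further: 300 nL library stock went into each well; scaled to the means of positive and negative controls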
HCMV NEC inh – disrupts HCMV UL50-UL53 complex binding; AID 1918969; HTRF UL50-UL53 interaction, normalized percent inhibition; 190,000 tested, 0.15% active; inhibition, % (concentration not given with the values);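 active means both replicates at 50% or more, plus weaker picks with an unusually low signal ratio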;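 further: stock transfer was 100 nL into about 20 µL; 0% = negative control wells and 100% = wells with untagged competitor protein; inactives centre near -12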
Sa growth 42C second temp – recorded beside Sa growth 42C, whose call it bears; relative growth, %; measured here: growth at 30 °C;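 optical density after 20 h as mean of two plates; 100% = untreated growth and lower means inhibition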
An asterisk follows results filed as active; / = no result given; & = joins results of further samples.

SMILES	GIV Gai3 FP	Sa growth 42C	Sa growth 42C second temp	HCMV NEC inh
CCCOc1ccccc1/C=C1\SC(N2CCN(C(C)=O)CC2)=NC1=O	105	86	75	-74
CCCCSCCCNC(=O)c1cn(C)c2ccc(S(=O)(=O)N3CCCCCC3)cc2c1=O	102	91	88	-42
COc1ccc(-c2nc(SCCOc3cc(C)ccc3C(C)C)n3[nH]c(=O)cc3n2)cc1	96	85	92	/
Brc1ccc(-c2nn[nH]n2)cc1	99	/	/	4
COc1ccc(-n2c(=S)n(CN3CC(C)OC(C)C3)c3ccccc32)cc1 (stereo unspecified)	/	78	83	-10
O=C(CN1CCN(Cc2ccc(F)cc2)C(=O)C1=O)N1CCN(c2ccccn2)CC1	104	/	/	-29
COC(=O)C1=C(Nc2ccc(OC(=O)c3ccccc3Cl)cc2)CSC1	98	98	79	-14
Cc1ccc(C(=O)OCc2c(C)noc2C)c(C)c1	/	104	98	16
CC12CCC(C(=O)O)(C/C1=N\N)C2(C)C (stereo unspecified)	99	109	98	-10
Cc1cccc(C(=O)Nc2sc3c(c2C(=O)NC(C)C)CCCC3)c1	106	100	89	-53
COc1ccc(C2CC(=O)C3=C(C2)Nc2ccccc2NC3c2coc3ccccc3c2=O)cc1OC (stereo unspecified)	104	/	/	-20
CCN(CC)S(=O)(=O)c1ccc(C(=O)Nc2cc(C)c3c(=O)oc4ccccc4c3n2)cc1	104	107	77	-10
CN1/C(=C\C(=O)CSc2nc(N)cc(=O)[nH]2)C(C)(C)c2ccccc21	/	92	86	-16
COc1cc(OC)c(NC(=O)CS(=O)(=O)Cc2nc(-c3ccc(C)cc3)oc2C)cc1Cl	102	79	85	-20
CCOc1ccccc1NC(=O)C1CCN(S(=O)(=O)c2ccc3[nH]c(=O)oc3c2)CC1	101	71	90	/
CCc1c(C)c2cc3c(c(C)c2oc1=O)OCN(CCc1ccc(OC)c(OC)c1)C3	83*	95	81	-33
CN1C(=O)/C(=C/c2cccc(Cl)c2)Sc2ccc(C(=O)N3CCCCC3)cc21	105	92	90	/
O=C(CNc1ccc(Cl)cc1)c1cc2ccccc2oc1=O	/	85	99	28
CCOC(=O)c1cc2c(=O)n3cccc(C)c3nc2n(C2CCCC2)c1=N	103	96	97	-41
COCCCNS(=O)(=O)c1cc(-c2onc(C)c2C)ccc1OC	116	107	101	/

Single records, from the list above. Values in the order: GIV Gai3 FP, Sa growth 42C, Sa growth 42C second temp, HCMV NEC inh
`COc1ccc(-c2nc(SCCOc3cc(C)ccc3C(C)C)n3[nH]c(=O)cc3n2)cc1` across the screens: 96, 85, 92, /
`Cc1ccc(C(=O)OCc2c(C)noc2C)c(C)c1` across the screens: /, 104, 98, 16
`O=C(CN1CCN(Cc2ccc(F)cc2)C(=O)C1=O)N1CCN(c2ccccn2)CC1` across the screens: 104, /, /, -29
`CC12CCC(C(=O)O)(C/C1=N\N)C2(C)C` (stereo unspecified) across the screens: 99, 109, 98, -10
`COC(=O)C1=C(Nc2ccc(OC(=O)c3ccccc3Cl)cc2)CSC1` across the screens: 98, 98, 79, -14

Grouped by structure: the entries above containing an NH in an aromatic ring
SMILES	GIV Gai3 FP	Sa growth 42C	Sa growth 42C second temp	HCMV NEC inh
COc1ccc(-c2nc(SCCOc3cc(C)ccc3C(C)C)n3[nH]c(=O)cc3n2)cc1	96	85	92	/
Brc1ccc(-c2nn[nH]n2)cc1	99	/	/	4
CN1/C(=C\C(=O)CSc2nc(N)cc(=O)[nH]2)C(C)(C)c2ccccc21	/	92	86	-16
CCOc1ccccc1NC(=O)C1CCN(S(=O)(=O)c2ccc3[nH]c(=O)oc3c2)CC1	101	71	90	/

Next part:
SMILES	GIV Gai3 FP	Sa growth 42C	Sa growth 42C second temp	HCMV NEC inh
O=c1[nH]c2cc(Br)cnc2[nH]1	102	100	97	77*
Cc1ccc(Nc2cc(C)nc(-n3nc(C)cc3C)n2)cc1	112&104	0.2*	-0.1*	/
NS(=O)(=O)c1ccc(Nc2nc(-c3cccnc3)cs2)cc1	99	100	103	-2
CC(C)(CNC(=O)CSc1ccc(F)cc1)N1CCOCC1	/	78	92	-21
CCS(=O)(=O)Nc1ccc(C2=NN(S(=O)(=O)c3ccccc3)C(c3ccccc3)C2)cc1 (stereo unspecified)	140	86	50	/
Cn1c(=O)c2c(nc(NCCc3ccccc3)n2Cc2ccc(Br)cc2)n(C)c1=O	109	/	/	4
O=C(CSc1nnc(-c2ccc(F)cc2)o1)N(Cc1nnc(-c2ccc(Cl)cc2)o1)C1CC1	/	111	87	5
COc1ccc(S(=O)(=O)N(C)CCc2ccc(OC)c(OC)c2)cc1	/	95	87	-10
O=C(c1cccc(F)c1)c1ccc2c(c1)CCCO2	106	114	82	-8
Cc1ccc(NS(=O)(=O)N(C)C)cc1	95	96	91	-8
CCc1nnc2sc(-c3ccc(C)c(NC(=O)c4ccc5c(c4)OCCO5)c3)nn12	96	/	/	-17
O=c1[nH]c2ccccc2nc1-c1ccccc1	96	101	94	-46&-8
CCn1nc(C)c(Br)c1-c1nc(-c2ccc(C(F)(F)F)cn2)no1	103	108	87	2
COc1ccc(OC)c(NC(=O)c2c(NC(=O)CNCc3ccco3)sc3c2CCC3)c1	106	116	94	-12
O=c1cc(CNc2ccc(Br)cc2)nc2nc(NCc3ccc(F)cc3)[nH]n12	99	/	/	-21
CN=C(C)/C(C(=O)OC)=C(\O)c1ccc(C(F)(F)F)cc1	100	97	95	-4
O=S1(=O)N=C(N2CCN(S(=O)(=O)c3cccs3)CC2)c2ccccc21	/	88	92	-12
CC(C)CNC(=O)[C@@H]1CCCN1C(=O)c1cccs1	/	98	93	-11
O=C(CCCn1c(=O)oc2ccccc21)NCCN1C(=O)S/C(=C\c2ccc(F)cc2)C1=O	/	106	60	-40
CCC(C)C(N)C(=O)N1CCOCCN(C(=O)C(N)C(C)CC)CCOCC1 (stereo unspecified)	100	101	93	-32
CC(=O)n1nccc1-c1sc(COc2cccc(Cl)c2)nc1C	104	111	94	-2
CCOC(=O)c1ccc(NC(=O)CCc2c[nH]c3ccccc23)cc1	110	116	73	/
CCOC(=O)c1ccc2nc(-c3ccccc3)cc(OCC(=O)N3CCOc4ccc(C)cc43)c2c1	102	/	/	-24
O=C(NC1CCCC1)c1ccc(N2CCNCC2)c(NS(=O)(=O)c2ccc(F)c(Cl)c2)c1	101	/	/	0
Cc1ccc2nc(NCc3ccc(F)cc3)c3nncn3c2c1	109	101	105	1
Cc1cccnc1-n1c(C)c(C)c2c1ncn1nc(-c3ccncc3)nc21	114	/	/	-7
Nc1nc(COc2ccc3ccccc3c2)cs1	95	98	86	-40
Cc1cnc(=O)[nH]c1SCC(=O)Nc1cc(C(F)(F)F)ccc1Cl	98	110	93	/
O=C(O)c1cccnc1SCc1ccc(F)cc1	96	94	86	-16
Cc1ccc(S(=O)(=O)NC(=O)NC2CCN(c3nccc(C(F)(F)F)n3)CC2)cc1	104	97	89	-15
COc1cc2c(cc1OC)CN(Cc1cc(=O)oc3c(C)c(C)ccc13)CC2	/	107	94	-37
COc1ccc(C(=O)NCCCN2CCOCC2)cc1S(=O)(=O)N1CCCc2ccccc21	/	87	90	-13
O=C(NCc1ccc2c(c1)OCO2)c1cc2c(s1)CSC2	111	101	80	-17
O=C(c1ccccc1Br)N1CCN(CCc2ccccn2)CC1	99	/	/	-5
CCc1nn2c(-c3ccccc3OC)ccnc2c1-c1ccccc1	108&99	92	80	-14&-46
CC(=O)OCc1c(OC(C)=O)ccc2c([N+](=O)[O-])c(C)n(-c3ccc(C)cc3)c12	111	/	/	-12
Clc1ccc(-c2cnnc(-c3ccccc3)n2)cc1	106	107	76	/
CCN(CC)S(=O)(=O)C1CCS(=O)(=O)C1 (stereo unspecified)	95&103	99	84	-10&-21
CN(C(=O)CSc1nc2ccc(NC(=O)COc3ccc(Cl)cc3)cc2s1)c1ccccc1	97	120	95	-15
CCC(C)NC(=O)c1cnn(-c2cccc(F)c2)c1-n1cccc1 (stereo unspecified)	99	86	91	/
COc1ccc(C(=O)NC(C)C(c2cccs2)N2CCOCC2)cc1 (stereo unspecified)	103	81	77	/
COc1cccc(C2CC(C(F)(F)F)n3ncc(C(=O)N4CCCCC4C)c3N2)c1 (stereo unspecified)	/	103	76	-11
CCc1ccc(NC(=O)Cn2c(=O)n(CCC(=O)NCc3ccccc3)c(=O)c3sccc32)cc1	101	104	96	/
O=C(COC(=O)c1c2c(nc3ccccc13)CCC2)Nc1ccc2c(c1)OCCO2	/	83	67	-1
CCc1ccc(NC(=O)C2CCN(S(=O)(=O)c3ccc4c(c3)CC(C)N4C(C)=O)CC2)cc1 (stereo unspecified)	107	/	/	-18
c1ccc(-c2nc(NN3CCCCC3)nc3ccccc23)cc1	/	100	87	-28
CC1(C)C(=O)OC2(c3ccc(Cl)cc3)C1OC(=O)C2(C)C (stereo unspecified)	99	107	73	-6
CCc1ccc(OC(C)C(=O)Nc2nonc2-c2ccc(Br)cc2)cc1 (stereo unspecified)	96	/	/	5
COc1ccccc1C1C(C#N)=C(N)Oc2n[nH]c(-c3cc(OC)c(OC)c(OC)c3)c21 (stereo unspecified)	104	/	/	-24
Cc1ccc(NCCNc2ccc(C)cc2)cc1	/	75	114	14
O=C(NC(c1ccccc1)c1ccccc1)c1ccco1	/	85	93	9
Cc1cc(N2CCN(c3ccc(F)cc3)CC2)nc2cc(O)ccc12	101	66	30	2
O=C(CSc1nccn2nc(-c3ccccc3)cc12)NCCc1ccccc1	104	/	/	-22
CCOC(=O)c1cnc(SC)nc1-c1ccccc1	110	104	87	4
OC(CNCC1COc2ccccc2O1)COC1CCCc2ccccc21 (stereo unspecified)	/	119	91	-37
CN1CCCN(C(=O)c2ccc(S(=O)(=O)N3CCCCC3)cc2)c2nc3ccccc3nc21	/	85	91	-34
Cc1[nH]c(=O)[nH]c(=O)c1S(=O)(=O)NCCO	103	/	/	-10
CCC(=O)N1CCc2cc(S(=O)(=O)NCCN(C)C)ccc21	102	92	90	-2
COc1ccccc1N1C(=O)c2ccc(C(=O)Nc3cc(C)on3)cc2C1=O	/	114	92	-10
O=C(CCCN1C(=O)/C(=C/c2cccc(Br)c2)SC1=S)Nc1ccc(C(=O)O)cc1	101	/	/	-26

GIV Gai3 FP: entries above that show a hit.
compound	GIV Gai3 FP	Sa growth 42C	Sa growth 42C second temp
CCc1c(C)c2cc3c(c(C)c2oc1=O)OCN(CCc1ccc(OC)c(OC)c1)C3	83*	95	81

Part of the list above in order of molecular weight, smallest number first:
SMILES	GIV Gai3 FP	Sa growth 42C	Sa growth 42C second temp	HCMV NEC inh
CC12CCC(C(=O)O)(C/C1=N\N)C2(C)C (stereo unspecified)	99	109	98	-10
O=c1[nH]c2ccccc2nc1-c1ccccc1	96	101	94	-46&-8
Brc1ccc(-c2nn[nH]n2)cc1	99	/	/	4
CCC(C)NC(=O)c1cnn(-c2cccc(F)c2)c1-n1cccc1 (stereo unspecified)	99	86	91	/
O=C(NC1CCCC1)c1ccc(N2CCNCC2)c(NS(=O)(=O)c2ccc(F)c(Cl)c2)c1	101	/	/	0
CN(C(=O)CSc1nc2ccc(NC(=O)COc3ccc(Cl)cc3)cc2s1)c1ccccc1	97	120	95	-15

Next section:
SMILES	GIV Gai3 FP	Sa growth 42C	Sa growth 42C second temp	HCMV NEC inh
CCC1Cc2c(nc3c4c(nc(N5CCOCC5)c(C#N)c24)NC2(CCCCC2)N3)O1 (stereo unspecified)	/	100	98	-1
Cc1nnc(N2CCCC(C(=O)Nc3cccc(C(F)(F)F)c3)C2)c2nn(-c3ccccc3)c(C)c12 (stereo unspecified)	120	121	93	/
CN1C=CC=C/C1=C(/C#N)C(=O)NC1CCCCC1	/	102	102	-5
Cc1c(Nc2ncnc3sc4c(c23)CCCC4)c(=O)n(-c2ccccc2)n1C	101	112	87	-24

An unsorted share of the library; 0.83% or so of the library scored in one or more.
